StopGo reporter – lowers the luciferase signal of an FMDV 2A StopGo reporter; human cells with a luciferase reporter of 2A StopGo recoding; control for the full effect not named in the record; Potency, µM (series often up to 57.9 µM), for the others: at the top dose signal change, negative = less light; 410,000 compounds, 1.2% hits; AID 1159524; active = well fitted falling curve with a large enough effect; inconclusive = small, poorly fitted or top-dose-only effect; inactive = no such curve, though single readings can be large or run the other way; tested in HEK293T cells; note: nearly all actives have a fitted effect of over 45% in size; luciferase light after 4 h
RE007 growth inh – less growth of the S. pombe RE007 Vpr strain. S. pombe RE007 Vpr strain, BacTiter-Glo ATP luminescence, 24 h; control for the full effect not named in the record. Potency, µM (series often up to 92.2 µM), for inactives: at the highest dose activity change, negative = less growth. 360,000 compounds, 0.21% hits; active = well fitted falling curve with a large enough effect; inconclusive = small, poorly fitted or top-dose-only effect; inactive = no such curve, though single readings can be large or run the other way;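 note: nearly all actives have a fitted effect of over 50% in size; the assay follows cell death caused by Vpr and the record does not say whether a fall means rescue or toxicity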
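Fission yeast strain RE007, carrying one chromosomally integrated HIV-1 vpr copy, was seeded at OD 0.01 in PMG+AL medium with 23 nL pinned compound. After 24 h at 30 °C and 99% humidity, viability was read by BacTiter-Glo luminescence.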
Numbers without * were called inactive; ? = inconclusive; [ ] = remark or other dose. % is set by controls: 0 for no effect and ±100 for the full control effect; potency is the fitted concentration of half-maximal effect. Only part of the results is shown (hit frequency here may not be typical).

Order of results – StopGo reporter, RE007 growth inh
COc1ccc(-c2cc3c(c4c2ccn4C)C2CCC3O2)cn1 (stereo not drawn)
→ -7%, -18%
COc1ccc(CN2CC[C@H]3C=CC[C@@H](C(=O)NCCc4ccccc4)[C@H]3C2=O)cc1OC
→ 64%[activator], -3%
CCCCn1nnnc1C1(C)CCC(=O)N1Cc1cccnc1 (stereo not drawn)
→ -16%, -7%
CC[C@]12C(=O)N(C)C[C@H]([C@@H]3C(=O)N(C)C(=O)[C@@H]31)N2C(=O)c1ccc(Cl)c(Cl)c1
→ -6%, 8%
CNC(=O)c1cc(Oc2ccc(NC(=O)c3[nH]c(-c4ccccc4)c4c3C(=O)N(C)C4=O)cc2)ccn1
→ ?, 53%
N#CC1c2ccccc2-n2nncc2CN1C(=O)c1ccccc1F (stereo not drawn)
→ -8%, 3%
O=C(Nc1ccc(Cl)c(C(F)(F)F)c1)[C@@H]1CC=C[C@@H]2CCN(C3CCCCC3)C(=O)[C@@H]21
→ -26%, -3%
CCCS(=O)(=O)NC(=O)C1(C)CCN(C(=O)c2ccc(C(=O)OC)cc2)C1 (stereo not drawn)
→ -12%, -5%
CC(C)c1ccc(NC(=O)Nc2nc(C(N)COCc3ccccc3)cs2)cc1 (stereo not drawn)
→ 0%, 12%
Cc1ccc(S(=O)(=O)N2C[C@@H](C)[C@]3(C2)[C@H](O)[C@H](OC(=O)NCc2ccccc2)C[C@H]2C(=O)N(c4ccccc4)C(=O)[C@H]23)cc1
→ ?, 5%
CC(C)CN1CCC(C(=O)NC(c2ccc(F)cc2)c2ccc3ccccc3n2)CC1 (stereo not drawn)
→ 3%, -11%[18.4 µM]
COc1cccc(Nc2nc(C(C)N)cs2)n1 (stereo not drawn)
→ -20%, 0%
CC(C)NC(=O)N1Cc2cc(C(=O)NC3CCCCC3)nc(-c3cccc(-c4cccnc4)c3)c2[C@@H]1CCO
→ ?, 6%
CC(C)C[C@@H](CN1CCC[C@H]1CN1C(=O)C(=O)NC[C@@H]1Cc1ccc(O)cc1)N1C[C@H](Cc2ccccc2)N(CC2CCCCC2)C(=O)C1=O
→ 25%, 3%
CC(C)(C)OC(=O)N1CCN(C(=O)c2[nH]c(C(F)(F)F)nc2-c2ccccc2)CC1
→ -16%, 7%

One compound at a time, from the list above. Order of values: StopGo reporter	RE007 growth inh
Listed for COc1cccc(Nc2nc(C(C)N)cs2)n1 (stereo not drawn) = -20%	0%
Listed for CC(C)C[C@@H](CN1CCC[C@H]1CN1C(=O)C(=O)NC[C@@H]1Cc1ccc(O)cc1)N1C[C@H](Cc2ccccc2)N(CC2CCCCC2)C(=O)C1=O = 25%	3%

(cont.)
Order of results – StopGo reporter, RE007 growth inh
Cc1onc(-c2ccccc2Cl)c1C(=O)NCc1nnnn1-c1ccc(F)c(F)c1
→ 6%, -12%
NC(=O)c1ncn([C@@H]2O[C@H](CNS(=O)(=O)c3cc(S(=O)(=O)c4ccccc4)cs3)[C@@H](O)[C@H]2O)n1
→ -24%, 4%
C#Cc1ccc(NC(=O)C2(C)CCN2C(=O)c2cc(C)n(C)n2)cc1 (stereo not drawn)
→ ?, -12%
CCOc1ccccc1C(=O)OCC(=O)Nc1cccc(S(=O)(=O)NC2=NCCCCC2)c1
→ -19%, 3%
O=C(Nc1ccc(Cl)cc1)C1Cc2c(-c3ccc(Cl)cc3)ccnc2O1 (stereo not drawn)
→ ?, -15%
C[C@@H]1CN([C@H](C)CO)C(=O)CCCn2nncc2CO[C@H]1CN(C)C(=O)OCc1ccccc1
→ -13%, -5%
O=C(NCc1cc(Cl)cc(Cl)c1)c1csc(COCCO)n1
→ -6%, 4%
COc1ccc(C(=O)Nc2ccc3nc(C)sc3c2)cc1S(=O)(=O)N1CCOCC1
→ 0%, -8%
CC1=C(C(=O)N2CCOCC2)CC(CC(=O)NC2CC2)C(=O)N1Cc1ccc(F)cc1 (stereo not drawn)
→ -12%, 21%
CC1=C2C3OC(=O)C(C)C3CCC2(C)C=C(Br)C1=O (stereo not drawn)
→ -5%, -12%
OCC[C@@H]1C[C@H](O)[C@@H](O)[C@@]2(OCCc3cc(Cl)ccc32)O1
→ -8%, 0%
CC(C)C[C@H]1CNC(=S)N1CC1CCCN1C[C@H](Cc1ccccc1)N1C[C@H](Cc2ccccc2)N(CC2CCCCC2)C1=S (stereo partly drawn)
→ -19%, -5%
O[C@@H]1CCCN2CCc3c([nH]c4ccccc34)[C@H]12
→ -4%, 0%
Cc1ccccc1-c1csc(C(O)c2cccnc2)n1 (stereo not drawn)
→ -4%, -3%[18.4 µM]
COc1cc(Cl)ccc1OC1(C)CCN(Cc2ccc3ccccc3c2)C1 (stereo not drawn)
→ -2%, -19%[18.4 µM]
Cc1ccc(-c2nc3ccc(C)cn3c2Cc2ccccn2)cc1
→ 17%, ?
Cc1ccc(S(=O)(=O)N2C[C@H]3[C@H]4C(=O)N(C)C(=O)[C@H]4CC(=O)[C@H]3[C@@H]2c2ccccc2F)cc1
→ -17%, -3%
CN(C(=O)c1cc2c(cc1Br)OCO2)c1cccc2ccccc12
→ ?, 13%
C=CC(=O)Nc1cccc(Oc2ccnc3[nH]ccc23)c1
→ -14%, -22%
O=C(NCc1ccccc1Cl)c1csc([C@H]2C[C@H](O)[C@@H](CO)O2)n1
→ -13%, 8%
O=c1ccn([C@@H]2O[C@H](CNS(=O)(=O)c3cc4ccccc4s3)[C@@H](O)[C@H]2O)c(=O)[nH]1
→ -22%, -4%
COc1cc(OC)nc(Nc2nc(C(N)c3ccccc3Cl)cs2)n1 (stereo not drawn)
→ -9%, 9%[18.4 µM]
CNc1cc(-c2ccc(OC)c(OC)c2)ncn1
→ 22%, -1%[18.4 µM]
C/C=C1\COC(C(=O)NCc2ccccc2)(C(F)(F)F)C=C1C=C(C)C (stereo not drawn)
→ -21%, -16%
CN(CC(=O)Nc1ccc(Cl)c(Cl)c1)CC(=O)N1CCCCCC1
→ -23%, -4%
C[C@H]1CN([C@@H](C)CO)S(=O)(=O)c2ccc(-c3cccc(F)c3)cc2O[C@@H]1CN(C)C
→ -7%, -4%
CC(=O)Nc1nc2[nH]ccc2c(=O)[nH]1
→ 0%, -7%
C[C@H]1CCC[C@@]2(O[C@H](CCO)C[C@H](O)[C@H]2O)O1
→ -15%, 32%
CC1(C(=O)Nc2ccc3c(c2)OCCO3)CN(S(C)(=O)=O)CC(=O)N1CCCn1ccnc1 (stereo not drawn)
→ -11%, -9%
Cc1ccc(S(=O)(=O)N2C[C@H]3C(=O)C[C@@H](c4ccccc4)N(S(=O)(=O)c4ccc(C)cc4)[C@H]3C[C@H]2c2ccccc2)cc1
→ -7%, 6%
CCNC(=O)C1(C)CCN(Cc2ccccc2C#N)C1 (stereo not drawn)
→ -25%, -14%
C[C@@H]1CN([C@@H](C)CO)C(=O)CCCn2nncc2CO[C@H]1CN(C)C(=O)Oc1ccc2ccccc2c1
→ 0%, -25%
C=CCOC(=O)C1=C[C@H](C(C)(C)C)[C@@H](CCCO)[C@H](OCC)O1
→ -18%, 12%
CN(CCc1ccccc1)C(=O)c1cccc(NC(=O)Cc2cccc(NC(=O)C3CCN(C(=O)C4CC4)CC3)c2)c1
→ -1%, 2%
COc1cccc(CCc2nc3ccccc3c(=O)n2N)c1
→ -7%, 18%
COc1ccc(-c2cc(NC=O)c3ncc(-c4ccccc4)n3c2)cc1OC
→ -25%, -5%[18.4 µM]
CCCCCCC(=O)Oc1cccc(C2=CC(=O)CC(C)(C)C2=O)c1
→ -25%, 1%
NCCCCC(C(=O)O)N(C(=O)OCc1ccccc1)C(=O)OCc1ccccc1 (stereo not drawn)
→ -10%, 11%
COc1ccc(NC(=O)C2Cc3c(-c4ccc(NC(C)=O)cc4)ccnc3O2)cn1 (stereo not drawn)
→ -11%, 19%
Cc1cccc(S(=O)(=O)NC(=O)C2(C)CCN2C(=O)Cc2cccs2)c1 (stereo not drawn)
→ -8%, 8%
O=C(Nc1ccc(Cl)cc1)c1csc(COCCO)n1
→ 9%, -6%
CCCCn1nnnc1-c1nc2ccccc2[nH]c1=O
→ -19%, 48%
COC(=O)[C@]12CCCCC=C1N(CCC1=CCCCC1)C(=O)[C@H](CC(=O)N1CCN(C(=O)C3CC3)CC1)C2
→ 0%, 0%
Cc1cccc(C)c1N1CCN(C(c2cc3ccccc3o2)c2nnnn2C(C)(C)C)CC1 (stereo not drawn)
→ ?, 6%
O=C(Nc1ccccc1)[C@@H]1CC=C[C@@H]2CCN(C3CCCCC3)C(=O)[C@@H]21
→ 2%, 8%

Quoted from the results shown (2 entries):
Order of results – StopGo reporter, RE007 growth inh
CCNC(=O)C1(C)CCN(Cc2ccccc2C#N)C1 (stereo not drawn)
→ -25%, -14%
C[C@@H]1CN([C@@H](C)CO)C(=O)CCCn2nncc2CO[C@H]1CN(C)C(=O)Oc1ccc2ccccc2c1
→ 0%, -25%

(listing goes on)
Order of results – StopGo reporter, RE007 growth inh
COc1ccc(-c2nc3ccc(C)cn3c2Cc2cccc(Cl)c2)cc1OC
→ 11%, -30%
COCc1cccc(-c2csc(C(O)c3ccccc3)n2)c1 (stereo not drawn)
→ 6%, 7%
COc1ccc(F)cc1S(=O)(=O)N1CCc2ccccc2C1
→ -4%, 21%
CCOC(=O)C1(C)CCCCCN1C(=O)/C=C/c1ccccc1 (stereo not drawn)
→ -27%, -14%
Cc1ccc(S(=O)(=O)N2C3CCCCC3O[C@H]2CC(=O)c2cccc3ccccc23)cc1 (stereo partly drawn)
→ -1%, -25%
Cc1ccc(S(=O)(=O)N2C[C@H]3C(=O)C[C@@H]4C(=O)N(c5ccccc5)C(=O)[C@@H]4[C@@H]3C[C@H]2c2cccs2)cc1
→ -19%, -9%
CCOc1ccc(CCN2C(=S)N([C@@H](Cc3ccc(O)cc3)CN3CCC[C@@H]3CN3C(=S)NC[C@@H]3CC(C)C)C[C@@H]2Cc2ccc(O)cc2)cc1
→ -4%, -9%
O=C(Cc1cccc(NC(=O)C2CCN(S(=O)(=O)c3cccc([N+](=O)[O-])c3)CC2)c1)Nc1cccc(C(=O)N2CCOCC2)c1
→ -14%, 6%
C[C@H]1CN([C@@H](C)CO)C(=O)CCCn2cc(nn2)CO[C@@H]1CN(C)C(=O)Nc1cccc(C(F)(F)F)c1
→ -1%, 12%
Cc1cc2nc(C(C)(C)C)c(Cc3cccc(F)c3)n2c(C)c1Br
→ -19%, -3%
CCOC(=O)[C@]12CCC=C1N(Cc1ccc(Cl)cc1Cl)C(=O)[C@H](CC(=O)NCCCOC)C2
→ -11%, 3%
COc1cccc(S(=O)(=O)N(C)C[C@@H]2Oc3cc(C#CCN(C)C)ccc3S(=O)(=O)N([C@H](C)CO)C[C@@H]2C)c1
→ -17%, -19%
CNC(C)C(=O)NC(C(=O)NC(C)C(=O)NNc1ccccc1)C(C)C (stereo not drawn)
→ -2%, 8%
Cc1ccc(S(=O)(=O)N2CC3C(=O)C[C@@H](c4ccccc4)N(S(=O)(=O)c4ccccc4Cl)C3CC2c2ccccc2)cc1 (stereo partly drawn)
→ 5%, -7%
O=C1c2cc3c(cc2CCC1c1ccc2c(c1)OCO2)OCO3 (stereo not drawn)
→ 44%[activator], 6%
Cc1cc(/C=C(\C#N)C(=O)OCC(=O)N(C)c2c(N)n(Cc3ccccc3)c(=O)[nH]c2=O)c(C)n1CC(C)C
→ 48%[activator], -6%
COc1c2c(c(CCC(=O)O)c3c1C=CC(C)(C)O3)OC(C)(C)C=C2
→ -17%, -1%
CCN1C(c2ccc(F)cc2)=CS/C1=C(/C#N)c1nnc2n1-c1ccccc1SC2
→ ?, 5%
O=C(CSc1nc2ccccc2c(=O)n1-c1ccc(Cl)c(Cl)c1)Nc1ccc2c(c1)CCC2
→ -22%, 0%
O=C(O)c1nn(Cc2ccc(Cl)cc2)c2ccccc12
→ 1%, -12%
COc1ccccc1N1CCN(c2ccc3c(c2)S(=O)(=O)c2cccc(C(=O)NCc4ccc(F)cc4)c2C3=O)CC1
→ -21%, 4%
Cc1ccc(C)c(C(O)c2ncc(-c3ccccc3F)[nH]2)c1 (stereo not drawn)
→ 73%[activator], -4%
CC1(C)OC(=O)C2=C(C[C@@H](CCc3ccccc3)O[C@@H]2c2ccc(Cl)cc2)O1
→ -17%, 2%
COc1cc(NC(=O)C2CC(c3ccccc3O)=NO2)cc(OC)c1OC (stereo not drawn)
→ -21%, -9%
C=CCOc1cccn2c(N(C)C(=O)c3ccncc3)c(CC)nc12
→ -8%, 9%[18.4 µM]
O=C(NCCN1CCC(n2c(=O)[nH]c3ccccc32)CC1)c1ccc2ccccc2c1
→ ?, -8%
COc1ccc(NC(=O)COC(=O)c2ccc3c(c2)OCCO3)cc1
→ -2%, -6%
CC(C)CC(N)c1csc(Nc2ccc(C(=O)NCCCO)cn2)n1 (stereo not drawn)
→ -20%, -17%
C[C@@H]1CN([C@H](C)CO)C(=O)CCCn2nncc2CO[C@H]1CN(C)C(=O)c1ccccc1
→ -17%, -4%
O=S1(=O)N[C@@H](Cc2ccccc2)COc2cccc(N3CCSCC3)c21
→ -9%, -23%
CC1CC(C)(C)C2=NCCN21 (stereo not drawn)
→ -6%, -12%
O=C(NCc1ccc(F)c(F)c1)C1Cc2c(-c3ccc4c(c3)OCO4)ccnc2O1 (stereo not drawn)
→ -26%, 0%

Bioassay records deposited in PubChem by National Center for Advancing Translational Sciences (NCATS).
